Assay outcomes as filed in PubChem BioAssay.
HSV augment: increases HSV replication in cells; HSV replication augmentation in cells, fold increase; maximum fold increase; 220,000 compounds, 0.005% hits; AID 1956;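 active = peak rise of 1.5-fold or more in the series; tested in PC3 cells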;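 also: first round at 10 µM; read as green reporter fluorescence; hits show the peak of a series up to 25 µM; 1 = signal of infected wells without compound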
PKD1 kinase inh: PKD1 (human) kinase inhibition; PKD1 kinase fluorescence polarization assay; inhibition, %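 (about 10 µM by stock and volumes)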; Q15139; 200,000 compounds, 0.056% hits;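 active = inhibition of 50% or more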;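 also: controls were vehicle for no effect and a reference inhibitor for full effect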
GALR2 agonist: activates the human galanin receptor 2. O43603. GALR2-expressing cells, agonist activation read-out. activation, %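 (tested at 5 µM)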. 140,000 compounds, 0.48% hits;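 active = above mean plus 3 SD of all compounds, about 5% in these data, not always enough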;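 also: 0% = vehicle buffer wells and 100% = reference agonist at full effect; tested in CHO reporter cells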
Target sequence (O43603 whole entry, looked up): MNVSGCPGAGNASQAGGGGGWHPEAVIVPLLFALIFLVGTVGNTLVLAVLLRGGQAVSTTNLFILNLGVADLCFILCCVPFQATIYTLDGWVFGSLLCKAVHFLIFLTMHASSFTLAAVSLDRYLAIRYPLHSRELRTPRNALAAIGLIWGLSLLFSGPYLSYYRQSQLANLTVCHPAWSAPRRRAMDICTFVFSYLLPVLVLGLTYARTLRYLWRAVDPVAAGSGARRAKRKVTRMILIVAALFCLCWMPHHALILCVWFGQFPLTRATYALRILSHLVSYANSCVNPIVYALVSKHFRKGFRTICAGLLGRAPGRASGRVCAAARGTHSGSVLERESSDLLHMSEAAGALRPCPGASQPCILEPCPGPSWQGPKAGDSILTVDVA
Insulin prom inh: TRM-6 insulin promoter activity inhibition | AID 1273 | inhibition, % at 2 µM | 130,000 compounds, 0.9% hits | TRM-6 cells (human fetal islet line), insulin promoter-eGFP reporter, imaging; reporter expression induced with tamoxifen;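 active = inhibition above the mean plus 3 SD, with well images judged a real hit on visual review, cut at about 60% in these data, passing the limit was not always enough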
RGS16-Gao HTS: regulators of human RGS16-Galphao interaction; O15492+P09471; bead-based flow cytometry RGS16-Galphao binding, fluorescence; actives lie on both sides; binding response (% of control), % at 10 µM; 220,000 compounds, 0.38% hits; AID 1441;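 active = below 25% or above 175%, edge rows of some plates excepted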;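 also: Galphao activated by GDP with aluminum fluoride before binding; 100% = wells without compound and 0% = beads without RGS; some results beyond the cut were filed as inactive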
Target sequence (O15492 whole entry, looked up): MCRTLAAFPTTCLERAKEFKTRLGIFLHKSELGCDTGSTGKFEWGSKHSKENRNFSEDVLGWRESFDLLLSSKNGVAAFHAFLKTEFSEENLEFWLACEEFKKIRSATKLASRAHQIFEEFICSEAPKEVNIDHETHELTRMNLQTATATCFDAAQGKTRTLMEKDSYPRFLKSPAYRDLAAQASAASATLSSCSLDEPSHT
Target sequence (P09471 whole entry, looked up): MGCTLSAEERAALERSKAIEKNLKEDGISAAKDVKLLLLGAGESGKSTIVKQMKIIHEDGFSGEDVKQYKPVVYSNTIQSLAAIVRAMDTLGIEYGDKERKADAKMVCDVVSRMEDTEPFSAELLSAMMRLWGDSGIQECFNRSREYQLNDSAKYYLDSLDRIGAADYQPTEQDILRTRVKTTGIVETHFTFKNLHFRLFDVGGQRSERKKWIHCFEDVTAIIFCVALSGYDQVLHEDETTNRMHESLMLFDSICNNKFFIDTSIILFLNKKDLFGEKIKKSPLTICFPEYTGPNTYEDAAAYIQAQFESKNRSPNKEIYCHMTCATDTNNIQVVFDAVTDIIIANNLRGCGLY
Insulin prom inh cell count: recorded beside Insulin prom inh, whose call it bears; normalized cell count, %; measured here: cell count, toxicity; reference of the scale not given here;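 cells exposed to compound for 48 h; stained nuclei by imaging scaled within each plate; lower means fewer cells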
HSV augment primary fold: further read-out of HSV augment, marked with its call; fold increase; compound at 10 µM; measured here: primary screen fold increase 10 uM; tested in PC3 cells;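 GFP signal in the first replicate; 1 = infected wells without compound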
* hit, by the source's call.

Cc1cccc(-n2ncc3c(N(C)Cc4ccccc4)ncnc32)c1 was read as HSV augment inactive, RGS16-Gao HTS 94.3 and HSV augment primary fold 0.9.
Screening CCCCn1c(SCc2ncc(-c3ccccc3)o2)nc2cc(S(N)(=O)=O)ccc21 returned HSV augment inactive, PKD1 kinase inh -2.9, GALR2 agonist -2.2, RGS16-Gao HTS 100.3 and HSV augment primary fold 0.94.
`NC(N)=NC(N)=Nc1ccc2ccccc2c1` gave HSV augment inactive, PKD1 kinase inh 3.4, RGS16-Gao HTS 100.1 and HSV augment primary fold 1.06.
CCOC(=O)n1cc(-c2cnc(CNC(=O)C(C)(c3ccccc3)c3ccccc3)o2)c2ccccc21 was read as HSV augment inactive, PKD1 kinase inh -7.4, GALR2 agonist -0.4, Insulin prom inh 45.0, RGS16-Gao HTS 108.0, Insulin prom inh cell count 94.5 and HSV augment primary fold 0.78.
`Fc1cccc(CSc2nc3ccncc3[nH]2)c1` gave HSV augment inactive, PKD1 kinase inh -1.3, GALR2 agonist -1.7, Insulin prom inh 10.0, RGS16-Gao HTS 104.9, Insulin prom inh cell count 83.5 and HSV augment primary fold 1.
Screening CCOC(=O)C(=CNc1ccccc1N1CCOCC1)C(=O)OCC returned HSV augment inactive, RGS16-Gao HTS 109.2 and HSV augment primary fold 0.9.
CCOC(=O)C1(CCc2ccccc2)CCN(Cc2ccn[nH]2)CC1 was read as HSV augment inactive, PKD1 kinase inh -1.9, Insulin prom inh -12.5, RGS16-Gao HTS 101.0, Insulin prom inh cell count 75.9 and HSV augment primary fold 0.97.
Screening CCCC(O)(CCC)C(=O)NN(C(=O)OC)c1ccccc1 returned HSV augment inactive, PKD1 kinase inh -6.8, GALR2 agonist -0.8, RGS16-Gao HTS 104.4 and HSV augment primary fold 1.15.
COC(=O)C1C2C=CC(C3CC23)C1C(=O)OCC(=O)c1ccc(OC)cc1 (stereo not given) was read as HSV augment inactive, PKD1 kinase inh 0.3, GALR2 agonist -1.2, Insulin prom inh -45.7, RGS16-Gao HTS 97.2, Insulin prom inh cell count 100.0 and HSV augment primary fold 1.08.
Screening CCN(CC(=O)NC1CCS(=O)(=O)C1)S(=O)(=O)c1ccccc1 (stereo not given) returned HSV augment inactive, PKD1 kinase inh -8.7, GALR2 agonist -0.6, Insulin prom inh -10.8, RGS16-Gao HTS 102.5, Insulin prom inh cell count 150.3 and HSV augment primary fold 0.91.
`Cc1cc(=O)oc2cc(OCC3CC(c4ccccc4)=NO3)ccc12` (stereo not given) gave HSV augment inactive, PKD1 kinase inh -5.5, GALR2 agonist 1.2, Insulin prom inh 16.7, RGS16-Gao HTS 104.3, Insulin prom inh cell count 118.0 and HSV augment primary fold 0.69.
For COc1ccc2nc(Cl)cc(Cl)c2c1 the results were HSV augment inactive, RGS16-Gao HTS 90.9 and HSV augment primary fold 0.98.
Screening Cc1c(C(=O)OCC(=O)N2c3ccccc3CC2C)oc2ccccc12 (stereo not given) returned PKD1 kinase inh 2.2, GALR2 agonist -2.2 and RGS16-Gao HTS 103.7.
COCCCNc1oc(-c2ccccc2Cl)nc1C#N was read as HSV augment inactive, PKD1 kinase inh 3.8, RGS16-Gao HTS 100.6 and HSV augment primary fold 0.75.
`C=C(C)CSc1nnc2n(N)c(=O)c3ccccc3n12` gave HSV augment inactive, PKD1 kinase inh 7.5, GALR2 agonist -1.2, Insulin prom inh -28.6, RGS16-Gao HTS 72.0, Insulin prom inh cell count 36.8 and HSV augment primary fold 0.87.
O=C(CCn1c(=O)sc2ccccc21)NCCCn1ccnc1 was read as HSV augment inactive, PKD1 kinase inh 1.3, GALR2 agonist -2.0, Insulin prom inh 20.0, RGS16-Gao HTS 106.7, Insulin prom inh cell count 73.9 and HSV augment primary fold 0.97.
For Clc1ccc(CSC2=NCCCN2)cc1Cl the results were HSV augment inactive, PKD1 kinase inh 9.2, GALR2 agonist -1.2, RGS16-Gao HTS 106.5 and HSV augment primary fold 1.05.
`CC(C)(C)c1ccc(C(=O)N2CCC(C(=O)NCCC3=CCCCC3)CC2)cc1` gave HSV augment inactive, PKD1 kinase inh 6.2, GALR2 agonist -0.4, RGS16-Gao HTS 101.8 and HSV augment primary fold 1.09.
Screening CCCCCOC(=O)NCCOC(=O)Nc1ccc(C(=O)OCC)cc1 returned HSV augment inactive, PKD1 kinase inh 9.3, GALR2 agonist -3.1, Insulin prom inh 6.2, RGS16-Gao HTS 100.0, Insulin prom inh cell count 149.3 and HSV augment primary fold 0.87.
CC1=C(C(=O)OC(C)C)C(C)NC(=O)N1 (stereo not given) was read as HSV augment inactive, PKD1 kinase inh -3.4, GALR2 agonist 0.4, RGS16-Gao HTS 100.3 and HSV augment primary fold 0.9.
CCOCc1nnc(NC(=O)c2ccco2)s1 was read as HSV augment inactive, PKD1 kinase inh 6.2, GALR2 agonist -2.0, Insulin prom inh -143.8, RGS16-Gao HTS 98.2, Insulin prom inh cell count 106.2 and HSV augment primary fold 0.86.
Screening O=C(CCc1ccccc1)NNC(=O)c1ccco1 returned HSV augment inactive, PKD1 kinase inh 6.7, GALR2 agonist -2.0, Insulin prom inh 10.7, RGS16-Gao HTS 102.3, Insulin prom inh cell count 136.8 and HSV augment primary fold 0.86.
CCN1CCN(c2cc(C)c3cc(NC(=O)c4ccc5c(c4)OCO5)ccc3n2)CC1 was read as HSV augment inactive, PKD1 kinase inh -15.7, GALR2 agonist 3.2, RGS16-Gao HTS 106.8 and HSV augment primary fold 0.65.
CN(C)c1ccc(-c2nnn(CC(=O)NCc3ccc4c(c3)OCO4)n2)cc1 was read as HSV augment inactive, PKD1 kinase inh -0.3, RGS16-Gao HTS 104.0 and HSV augment primary fold 0.84.
`CC(C)Oc1ccc(C(CC(=O)O)NC(=O)CSc2ncn[nH]2)cc1` (stereo not given) gave HSV augment inactive, PKD1 kinase inh -4.7, GALR2 agonist -2.3, Insulin prom inh 0.0, RGS16-Gao HTS 102.5, Insulin prom inh cell count 133.1 and HSV augment primary fold 0.983.
Screening Cc1cc(OCCCn2cnc3ccccc3c2=O)ccc1[N+](=O)[O-] returned HSV augment inactive, PKD1 kinase inh 7.5, GALR2 agonist -0.9, Insulin prom inh -13.8, RGS16-Gao HTS 108.7, Insulin prom inh cell count 88.6 and HSV augment primary fold 1.03.
CC(C)(C)c1ccc(-c2nnc(SCC(=O)O)n2N)cc1 was read as HSV augment inactive, PKD1 kinase inh -16.1, GALR2 agonist -0.2, RGS16-Gao HTS 98.3 and HSV augment primary fold 0.82.
Screening CNC(=O)CC1C(=O)N(C)C(=S)N1NC(=O)c1ccccc1 (stereo not given) returned HSV augment inactive, RGS16-Gao HTS 108.1 and HSV augment primary fold 0.86.
`O=S(=O)(c1ccc(Cl)cc1)n1cccn1` gave HSV augment inactive, PKD1 kinase inh 1.4, Insulin prom inh -127.8, RGS16-Gao HTS 105.8, Insulin prom inh cell count 121.4 and HSV augment primary fold 0.92.
For CCOC(=O)c1c(C)n(C)c2ccc(O)c(CN3CCCCC3)c12 the results were HSV augment inactive, PKD1 kinase inh -0.2, GALR2 agonist -2.3, Insulin prom inh 18.9, RGS16-Gao HTS 101.7, Insulin prom inh cell count 128.7 and HSV augment primary fold 0.86.
COCCCNC(=O)CN(c1cc(Cl)ccc1OC)S(C)(=O)=O was read as HSV augment inactive, PKD1 kinase inh 0.8, RGS16-Gao HTS 100.8 and HSV augment primary fold 1.02.
For CCOCCn1c(=NC(=O)c2cc(Cl)sc2Cl)sc2cc(S(N)(=O)=O)ccc21 the results were HSV augment inactive, PKD1 kinase inh -4.1, GALR2 agonist -0.9, Insulin prom inh -16.0, RGS16-Gao HTS 100.3, Insulin prom inh cell count 132.1 and HSV augment primary fold 0.64.
`O=C(Nc1ccc2c(c1)OCO2)Nc1ccccn1` gave HSV augment inactive, PKD1 kinase inh -1.4, Insulin prom inh -66.7, RGS16-Gao HTS 100.8, Insulin prom inh cell count 92.2 and HSV augment primary fold 0.97.
`CC1CCCN(C(=O)C2c3ccccc3C(=O)N3CCc4ccccc4C23)C1` (stereo not given) gave HSV augment inactive, PKD1 kinase inh 2.1, GALR2 agonist -0.8, RGS16-Gao HTS 99.2 and HSV augment primary fold 0.99.
`Cc1ccc(-c2noc(CN3CCOCC3)n2)cc1` gave HSV augment inactive, PKD1 kinase inh 6.8, GALR2 agonist -0.4, Insulin prom inh -16.2, RGS16-Gao HTS 110.6, Insulin prom inh cell count 97.0 and HSV augment primary fold 0.89.
`CC(=O)c1ccc(OCC(=O)NC2CCS(=O)(=O)C2)cc1` (stereo not given) gave HSV augment inactive, PKD1 kinase inh 1.0, GALR2 agonist -1.8, RGS16-Gao HTS 100.3 and HSV augment primary fold 0.92.
`COc1ccc(NC(=O)CCCN(C)S(=O)(=O)c2ccc(C)cc2)cc1` gave HSV augment inactive, PKD1 kinase inh 5.0, GALR2 agonist 0.0, RGS16-Gao HTS 103.3 and HSV augment primary fold 0.95.
COc1ccc(NC(=O)C(c2cc3c(cc2[N+](=O)[O-])OCO3)N(C)C)cc1 (stereo not given) was read as HSV augment inactive, PKD1 kinase inh -2.1, GALR2 agonist 0.3, Insulin prom inh 0.0, RGS16-Gao HTS 105.6, Insulin prom inh cell count 115.4 and HSV augment primary fold 0.99.
Screening CC(C)(C)C(=O)N(Cc1nc2ccccc2c(=O)[nH]1)Cc1cccs1 returned HSV augment inactive, PKD1 kinase inh 1.1, GALR2 agonist -2.2, Insulin prom inh -10.3, RGS16-Gao HTS 49.6, Insulin prom inh cell count 121.4 and HSV augment primary fold 0.9.
Screening COc1ccccc1NC(=O)CC(=O)CSc1nnc(-c2ccc(C)cc2)n1-c1ccccc1 returned HSV augment inactive, PKD1 kinase inh -8.6, GALR2 agonist -1.4, Insulin prom inh 39.5, RGS16-Gao HTS 106.2, Insulin prom inh cell count 86.0 and HSV augment primary fold 1.11.
Cc1ccc(-c2noc(CCC(=O)N3CCCC3)n2)cc1 was read as HSV augment inactive, PKD1 kinase inh 0.9, GALR2 agonist -3.2, Insulin prom inh 66.7, RGS16-Gao HTS 102.2, Insulin prom inh cell count 78.0 and HSV augment primary fold 0.95.
C=CCn1c(SCC(=O)NC(=O)NCc2ccco2)nc2sc(C)c(C)c2c1=O was read as HSV augment inactive, PKD1 kinase inh -4.9, GALR2 agonist 6.2*, RGS16-Gao HTS 96.7 and HSV augment primary fold 0.87.
`COc1ccccc1-n1cnc2cc(C(=O)NC3CCCC3)ccc21` gave HSV augment inactive, PKD1 kinase inh -5.6, GALR2 agonist -1.1, Insulin prom inh -4.7, RGS16-Gao HTS 101.9, Insulin prom inh cell count 143.3 and HSV augment primary fold 0.63.
Cc1ccc(/C=N/NC(=O)CCCOc2ccc(Cl)cc2Cl)cc1[N+](=O)[O-] was read as HSV augment inactive, PKD1 kinase inh -2.7, GALR2 agonist -3.3, Insulin prom inh 18.3, RGS16-Gao HTS 101.5, Insulin prom inh cell count 44.8 and HSV augment primary fold 0.94.
Screening CCOC(=O)c1c(CCl)nc2ccccc2c1C returned HSV augment inactive, PKD1 kinase inh -0.2, Insulin prom inh -17.6, RGS16-Gao HTS 103.0, Insulin prom inh cell count 100.0 and HSV augment primary fold 1.01.

Three entries picked at random from the list so far, as already listed:
COCCCNC(=O)CN(c1cc(Cl)ccc1OC)S(C)(=O)=O was read as HSV augment inactive, PKD1 kinase inh 0.8, RGS16-Gao HTS 100.8 and HSV augment primary fold 1.02.
Cc1ccc(/C=N/NC(=O)CCCOc2ccc(Cl)cc2Cl)cc1[N+](=O)[O-] was read as HSV augment inactive, PKD1 kinase inh -2.7, GALR2 agonist -3.3, Insulin prom inh 18.3, RGS16-Gao HTS 101.5, Insulin prom inh cell count 44.8 and HSV augment primary fold 0.94.
Screening COc1ccccc1NC(=O)CC(=O)CSc1nnc(-c2ccc(C)cc2)n1-c1ccccc1 returned HSV augment inactive, PKD1 kinase inh -8.6, GALR2 agonist -1.4, Insulin prom inh 39.5, RGS16-Gao HTS 106.2, Insulin prom inh cell count 86.0 and HSV augment primary fold 1.11.

(listing goes on)
Screening Cn1c(=O)c2c(nc(CN3CCc4ccccc4C3)n2Cc2cccc(Cl)c2)n(C)c1=O returned HSV augment inactive, PKD1 kinase inh 5.7, GALR2 agonist -0.4, RGS16-Gao HTS 100.0 and HSV augment primary fold 1.05.
c1ccc(-c2nnc(SCc3cn4ccsc4n3)o2)cc1 was read as HSV augment inactive, PKD1 kinase inh -9.0, GALR2 agonist -1.8, Insulin prom inh -30.8, RGS16-Gao HTS 123.3, Insulin prom inh cell count 98.3 and HSV augment primary fold 0.92.
O=C(Nc1cccnc1)c1ccccc1F was read as HSV augment inactive, PKD1 kinase inh -5.5, GALR2 agonist -2.0, Insulin prom inh 29.0, RGS16-Gao HTS 100.1, Insulin prom inh cell count 122.0 and HSV augment primary fold 1.03.
CC(C)CCNS(=O)(=O)c1ccc(-c2ccc(S(=O)(=O)NCCC(C)C)cc2)cc1 was read as HSV augment inactive, PKD1 kinase inh -1.6, GALR2 agonist -2.1, Insulin prom inh 20.8, RGS16-Gao HTS 102.8, Insulin prom inh cell count 121.8 and HSV augment primary fold 0.95.
